From PubChem
Sa ugtP lethal – kills S. aureus RN4220 lacking UgtP. 330,000 compounds, 0.54% hits. S. aureus RN4220 ugtP deletion, OD600 growth, 16 h; some inactives read as strong as hits. growth inhibition, % (concentration not given with the values). AID 1259309;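 active means z-score under -3 and OD600 up to 0.15 on both plates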;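 further: plate controls were untreated wells for no effect and antibiotic for full effect; wells of about 80 µL received 100 nL stock; the first replicate is given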
RN4220 kill – kills Staphylococcus aureus RN4220 | S. aureus RN4220 growth, OD600, 16 h | inhibition, % (test concentration not listed) | 330,000 compounds, 0.33% hits | AID 1259311;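 active means z-score of -3 or lower and OD600 up to 0.18 on both plates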;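 further: plate controls were untreated cells for no effect and reference antibiotic for full effect; stock transfer was 100 nL into about 80 µL; one replicate is shown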
Mtb hypoxia inh – reduces hypoxia-regulated biosensor signal in M. tuberculosis; M. tuberculosis hypoxia-regulated fluorescent reporter, fluorescence; fluorescence inhibition, % (concentration not given with the values); 300,000 compounds, 0.1% hits; AID 1159583;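 active means 35 to 45% if threefold the growth effect, above 45% if 1.5-fold the growth effect; inactive means the rest, general growth blockers included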;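 further: wells of about 50 µL received 100 nL stock; 0% = vehicle wells and 100% = reference inhibitor wells; whole bacteria with a GFP reporter of the hypoxia response; strong numbers were not always called active; many hits fall short of the cut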
BJeLR lethal – BJeLR cell viability loss | BJeLR (HRASV12) viability, CellTiter-Glo ATP luminescence, 48 h; reference of the scale not given here | inhibition, % (concentration not given with the values) | 300,000 compounds, 0.17% hits;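 active means replicate mean above 50%; inconclusive means above 50% but judged a plate artefact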;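 further: 50 nL library stock added to about 25 µL; numbers are from one replicate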
PrP UTR inh – inhibition of PrP 5' UTR reporter expression. 340,000 compounds, 0.35% hits. AID 488862. cell-based PrP 5' UTR mRNA reporter, plate reader. inhibition, % (no concentration beside the values);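 active means every replicate at 50% or more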;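 further: 0 = median of the neutral control wells; tested in H4 reporter cells; numbers are from one replicate; inactives centre near -14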
Bead autofluor – flagged as autofluorescent in microsphere protease counterscreen; fluorescence intensity (concentration not given with the values); 360,000 compounds, 3.1% hits; compound autofluorescence counterscreen, microsphere flow cytometry; hits give high values; AID 624483;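 active means at least 3 SD above the mean of all compounds, about 16000 in these data; inconclusive means too few beads counted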;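 further: 100 nL of 1 mM stock went into each well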
Mtb hypoxia inh growth – further read-out of Mtb hypoxia inh, marked with its call; growth inhibition, %; measured here: M. tuberculosis growth (absorbance);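 0% = vehicle and 100% = reference antibiotic; read after six days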
An asterisk follows results filed as active; u = inconclusive; x = no result given.

SMILES	Sa ugtP lethal	RN4220 kill	Mtb hypoxia inh	Mtb hypoxia inh growth	BJeLR lethal	PrP UTR inh	Bead autofluor
O=S(=O)(NCC1CC1)c1cccc(S(=O)(=O)N2CCCC2)c1	5	2.9	x	x	5	-13	3499
CCc1nc2nc(C)c(NS(=O)(=O)c3ccc(F)cc3)c(=O)n2[nH]1	10	5.9	9	11	0	-3	2839
O=[N+]([O-])c1ccccc1S(=O)(=O)N(CC(O)CN1CCCCC1)c1ccccc1 (centres undefined)	5	-0.2	-2	-2	1	-30	3880
CCN(CC)S(=O)(=O)c1cccc(N=Nc2sc(N)nc2C)c1	0	7.0	3	-2	0	-8	3578
COc1cccc(NC(=O)c2ccc3c(c2)C(=O)N(CC2CCCO2)C3=O)c1 (centres undefined)	14	3.2	4	-6	15	-5	5437
CC(NC(=O)Nc1cccc([N+](=O)[O-])c1)c1ccc2c(c1)OCO2 (centres undefined)	-12	0.4	-10	-5	-5	-4	x
CSc1ccc(S(=O)(=O)NCc2ccccc2C)cc1	-3	7.5	3	2	-6	-15	4860
CC1CCN(Cc2nc(-c3ccccc3)no2)CC1	14	6.1	x	x	8	-74	9139
COc1cc(/C=C/c2cc(C(=O)O)c3ccccc3n2)cc(OC)c1O	x	x	x	x	4	-6	2370
CCOC(=O)c1ccccc1NC(=O)Cn1cnc2c(cnn2C(C)(C)C)c1=O	2	7.4	12	2	9	-31	3199
O=C(Nc1cccc(C(F)(F)F)c1)OCc1ccncc1	-5	5.2	-9	-6	-12	-22	3530
CC(Oc1ccccc1)C(=O)Nc1cccc(NC(=O)c2ccco2)c1 (centres undefined)	6	7.6	2	5	2	-17	4596
Cc1nn(-c2ccc(F)cc2)c(Cl)c1/C=N/NC(=O)c1cccs1	x	x	x	x	-2	-114	2375
Cc1ccc(OCCC(=O)OCC(=O)c2ccc3c(c2)NC(=O)CO3)cc1	2	2.0	4	9	x	4	3805
O=C1C(Cc2ccc(O)cc2)NC(=S)N1C1CCCCC1 (centres undefined)	-3	4.1	8	14	-11	-21	3267
COc1ccc(CCN2C(=O)CC(NNC(=O)c3ccccc3Br)C2=O)cc1OC (centres undefined)	-2	-5.2	-1	-2	6	-12	2325
CN(C)S(=O)(=O)N1CCN(S(=O)(=O)c2ccc3ccccc3c2)CC1	0	0.1	7	9	-8	-1	9000
Cn1ccnc1SCC(=O)Nc1ccc(Oc2ccccc2)cc1	2	-15	3	2	-13	-28	2388
Cc1nc2scc(-c3ccccc3)c2c(=O)n1N	-5	4.9	8	0	1	-8	3463
C=CCn1c(COc2ccccc2)nnc1SCc1ccc(C#N)cc1	0	5.2	x	x	0	-7	2816
Cc1ccc(C)c(CN2CCNC2=O)c1	-2	1.0	-8	6	-5	0	10818
COc1ccc(CN2C(=O)NC(=O)/C(=C\c3ccco3)C2=O)cc1	x	x	x	x	0	-10	4707
C1=Nc2ccccc2CN1c1ccccc1	4	8.1	6	2	12	-63	2488
O=C(C1CCN(S(=O)(=O)c2ccccc2)CC1)N1CCC2(CC1)OCCO2	3	3.8	x	x	9	-14	3042
CCOCCCn1c(SCc2ccccc2)nnc1-c1ccncc1	1	6.0	12	11	6	-33	3735
COc1ccccc1NS(=O)(=O)c1cc(C(=O)NC2CC(C)(C)NC(C)(C)C2)ccc1Cl	-1	-1.2	-4	9	x	-2	3877
CCOc1ccc2[nH]c(C)c(CN(C)C)c(=O)c2c1	4	3.3	-1	-5	-8	2	7550
Cc1cccc(N(CC(=O)NCc2ccccc2)C(=O)CCC(=O)Nc2nccs2)c1	0	4.2	6	-1	-5	-13	3130
O=C(NC(O)C(=O)c1ccccc1)c1ccc(F)cc1 (centres undefined)	7	1.0	17	7	-3	-10	3836
NC(=O)C1(N2CCCCC2)CCN(C(=O)CSc2nc3ccccc3[nH]2)CC1	0	11	10	2	3	-20	2535
Cc1ccc(N2C(=O)C3ON(c4ccccc4)C(c4ccncc4)C3C2=O)c(C)c1 (centres undefined)	-10	-4.5	-7	4	0	-24	4259
Cc1cc(C)c(NC(=O)CNC(=O)CN(C)Cc2ccc(Br)s2)c(C)c1	3	3.9	11	5	x	-15	4128
CN(C)/C=C(\C(=O)c1ccc(F)cc1F)c1nnnn1-c1ccccc1	3	4.2	-1	0	-20	-3	2456
CN1C(=O)C2(c3ccccc31)C1CCCC=C1C(C#N)=C(N)C2(C#N)C#N (centres undefined)	-8	29	x	x	x	-16	2952
Cc1cc(NS(=O)(=O)c2c(C)c(C)cc(C)c2C)no1	7	4.1	1	-8	6	-20	6580
O=C(CC1C(=O)NCCN1C(=O)c1ccc([N+](=O)[O-])cc1)Nc1cccc(Cl)c1 (centres undefined)	-6	-3.2	-3	1	-3	-5	6467
CCC(=O)NC(=S)Nc1cccc(NC(=O)CC)c1	4	-1.0	x	x	-2	-6	3567
O=C(NCC1CCCO1)c1ccc(CS(=O)(=O)c2ccc(Br)cc2)o1 (centres undefined)	5	1.0	x	x	-6	12	6069
Cc1ccc(N(CN2C(=O)C3CC=CCC3C2=O)C(=O)c2ccco2)cc1Cl (centres undefined)	-6	6.3	8	8	-2	-6	4123
COc1cc(OC)c2c(-c3ccccc3)cc(=O)oc2c1C(CCN1CCN(c2ccccc2)CC1)c1ccc(N(C)C)cc1 (centres undefined)	-19	27	0	9	8	0	3669
CCn1c(SCCC(=O)Nc2ccccc2)nnc1-c1ccc(OC)cc1	-5	-2.6	x	x	2	-20	2053
CC(=O)N1CCc2cc(S(=O)(=O)NCCC(=O)Nc3cccc(C)c3C)ccc21	0	3.4	x	x	-2	-30	3948
C=C1c2cc(OC)ccc2NC(=O)N1CC	-2	4.6	x	x	-11	-1	4722
O=C(COC(=O)c1ccc(O)cc1)Nc1ccc(S(=O)(=O)N2CCOCC2)cc1	-3	0.6	2	4	x	-20	3923
Fc1ccc(OCCCCCN2CCCC2)cc1	6	1.1	7	9	-1	-25	10961
COc1ccccc1C(=O)NCC(=O)OCC(=O)Nc1nnc(-c2ccccc2)o1	-2	-0.3	-6	0	x	-26	3906
COC(=O)c1ccc(Sc2ccc(F)cc2)c(N)c1	-9	3.1	0	3	-16	-57	11471
O=C(OCCCCN1C(=O)c2ccccc2C1=O)c1ccc(S(=O)(=O)N2CCCC2)cc1	-5	-20	7	8	12	-18	2563

Part of the list above, as labelled records:
CCn1c(SCCC(=O)Nc2ccccc2)nnc1-c1ccc(OC)cc1
  Sa ugtP lethal = -5
  RN4220 kill = -2.6
  Mtb hypoxia inh = x
  Mtb hypoxia inh growth = x
  BJeLR lethal = 2
  PrP UTR inh = -20
  Bead autofluor = 2053

CC(=O)N1CCc2cc(S(=O)(=O)NCCC(=O)Nc3cccc(C)c3C)ccc21
  Sa ugtP lethal = 0
  RN4220 kill = 3.4
  Mtb hypoxia inh = x
  Mtb hypoxia inh growth = x
  BJeLR lethal = -2
  PrP UTR inh = -30
  Bead autofluor = 3948

C=C1c2cc(OC)ccc2NC(=O)N1CC
  Sa ugtP lethal = -2
  RN4220 kill = 4.6
  Mtb hypoxia inh = x
  Mtb hypoxia inh growth = x
  BJeLR lethal = -11
  PrP UTR inh = -1
  Bead autofluor = 4722

O=C(COC(=O)c1ccc(O)cc1)Nc1ccc(S(=O)(=O)N2CCOCC2)cc1
  Sa ugtP lethal = -3
  RN4220 kill = 0.6
  Mtb hypoxia inh = 2
  Mtb hypoxia inh growth = 4
  BJeLR lethal = x
  PrP UTR inh = -20
  Bead autofluor = 3923

Continuation:
SMILES	Sa ugtP lethal	RN4220 kill	Mtb hypoxia inh	Mtb hypoxia inh growth	BJeLR lethal	PrP UTR inh	Bead autofluor
COc1cc(NC(=O)Cc2ccc(F)cc2)cc(OC)c1OC	-2	6.2	6	2	0	-36	2199
CCOc1ccc(S(=O)(=O)N2CCC(C(=O)N3CCN(c4ccccc4)CC3)CC2)cc1	0	0.1	3	3	-2	-4	4236
COc1cc(-c2noc(C)c2/C=C/c2ccc(OC(C)=O)cc2)cc(OC)c1OC	x	x	x	x	31	64*	2944
Cc1cccc(N/C=C/C(=C(C#N)C#N)N(C)C)c1	3	3.0	4	1	-4	6	11094
CNC(=O)c1ccc(NC(=O)C2CCN(S(=O)(=O)c3cccc(C(F)(F)F)c3)CC2)cc1	1	2.2	-3	1	x	-4	5623
CCOc1cc(S(=O)(=O)N(CC)CC)c(OCC)cc1-n1cnnn1	6	5.1	5	-2	-4	x	8233
CC(=O)Nc1cccc(C(=O)OCC(=O)c2ccc(S(=O)(=O)N3CCCCC3)cc2)c1	x	x	x	x	-9	-30	5971
CCOC(=O)NC(=O)c1cn(Nc2ncc(C(F)(F)F)cc2Cl)c(=O)[nH]c1=O	4	3.4	1	11	0	-16	5954
CCC(=O)Nc1nnc(S(=O)(=O)N(CC(C)C)c2ccccc2)s1	2	6.1	4	-2	1	-9	3228
O=C(c1ccco1)N1CCN(C(=O)C23CC4CC(CC(C4)C2)C3)CC1	10	3.2	3	-11	0	-3	4247
Cn1c(SCC(=O)c2ccc(F)cc2)ncc(C(=O)Nc2ccccc2)c1=O	14	2.4	6	0	9	-21	x
CC(C)(C)NC(=O)C1CC(=O)OC1(C)C (centres undefined)	3	2.6	3	6	13	-20	21395*
Cc1ccc(S(=O)(=O)N(CC(O)CN2CCCCC2)c2ccccc2)cc1 (centres undefined)	1	-0.6	2	5	6	-8	5832
CC(NC(=O)c1ccc(F)cc1Cl)C1CC2CCC1C2 (centres undefined)	14	13	14	8	1	-36	5535
C=C(C)c1cccc(C(C)(C)NC(=O)N2CCCC2)c1	-10	-13	0	7	-10	-8	2841
CCCCCCSc1ccc([C@@H]2[C@@H]3C(=O)N(C)C(=O)[C@@H]3[C@]3(C(=O)OC)CCCCN23)cc1OC	x	x	x	x	2	-22	2991
CCOC(=O)c1oc2ccccc2c1NC(=O)c1ccccc1OC	-27	-4.3	0	-2	4	20	16033
CCc1cc(=O)[nH]c(SCc2ccc(C)cc2)n1	-1	3.6	7	8	3	-16	2634
Cc1noc(NC(=O)c2ccc(Cl)c(Cl)c2)c1Cl	11	12	4	19	5	-45	3278
CC(=O)Nc1sc(NC(=O)c2ccco2)nc1-c1cccs1	-5	2.8	-2	4	-6	-20	3871
CCOCCSc1nnc2nc(C)cc(C)n12	-1	-2.6	x	x	1	-22	2865
CCOc1ccc(NC(=O)Nc2ccc3c(c2)nnn3C)cc1	4	1.3	17	5	-4	-14	5860
COC(=O)c1c(C)[nH]c(C(=O)C(C)OC(=O)C2CC2)c1C (centres undefined)	5	5.4	10	5	x	-11	3843
COc1ccccc1NC(=O)CSc1nccn1Cc1ccc(F)cc1	3	-0.6	13	6	-2	-17	5443
Cc1cccc(NC(=O)CSc2nnc(C)n2Cc2ccccc2)c1	-1	0.7	-8	-4	-6	-9	9615
O=C(O)c1ccccc1CSc1nc2ccccc2n1Cc1ccccc1C(=O)O	-1	1.0	6	-3	2	-14	4757
CCCCN(C(=O)c1ccc(N2CCCC2=O)cc1)c1c(N)n(CC(C)C)c(=O)[nH]c1=O	6	-1.8	2	-2	x	-16	3715
CC(C)(C)OC(=O)N1CCC(NC(=O)c2[nH]cnc2C(=O)N[C@@H](Cc2ccccc2)C(=O)OCc2ccccc2)CC1	x	x	x	x	5	2	3997
CCOC(=O)c1c(C)[nH]c(C(C)=O)c1C	1	2.0	-2	14	3	-12	u
Cn1nc(-c2ccc(C(=O)NCCO)cc2)c2ccccc2c1=O	9	2.4	7	4	7	-21	6480
CCCN(CC(=O)Nc1ccc(F)c(F)c1F)C(=O)c1cc(S(=O)(=O)N(C)C)ccc1N1CCCC1	2	0.3	8	1	x	-23	x
CCN(CC)c1nc(C)c(C(C)=O)cc1C#N	-4	5.1	x	x	3	-11	2070
CCOC(=O)C1C(=O)C=C(c2ccccc2)CC1c1ccccc1 (centres undefined)	1	5.9	15	11	x	-13	3139
CC(=NNc1ccc([N+](=O)[O-])cc1)c1cccc(N)c1	-25	-6.2	4	2	x	x	x
O=C(Nc1ccc(-c2csc(Nc3cccc(C(F)(F)F)c3)n2)cc1)c1cccc(C(F)(F)F)c1	29	61	8	8	1	-10	3440
CC[C@@]12C(=O)N(c3ccccc3)C(=O)N1[C@H](c1ccc(Br)cc1)[C@@H]1C(=O)N(C(C)(C)C)C(=O)[C@@H]12	x	x	x	x	-7	11	3616
CCC1(C)Cc2c(sc3c2c(=O)n(-c2ccccc2)c(=O)n3C)CO1 (centres undefined)	5	8.3	10	0	x	-9	3166
CCN(CC)S(=O)(=O)c1ccc(OC)c(NC(=O)c2cccc([N+](=O)[O-])c2C)c1	2	10	14	6	4	-20	6664
O=C(CN1CCN(C(=O)C2CCN(C(=O)/C=C/c3ccccc3)CC2)CC1)Nc1ccccc1Cl	12	5.8	8	1	x	-26	5104
